Mtb hypoxia inh: Mtb hypoxia fluorescent reporter inhibition; M. tuberculosis hypoxia-regulated fluorescent reporter, fluorescence; fluorescence inhibition, % (test concentration not listed); 300,000 compounds, 0.1% hits;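 active means 35 to 45% if threefold the growth effect, above 45% if 1.5-fold the growth effect; inactive means the rest, general growth blockers included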;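 further: wells of about 50 µL received 100 nL stock; 0% = vehicle wells and 100% = reference inhibitor wells; whole bacteria with a GFP reporter of the hypoxia response; strong numbers were not always called active; many hits fall short of the cut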
PrP UTR inh: inhibition of PrP 5' UTR reporter expression. cell-based PrP 5' UTR mRNA reporter, plate reader. inhibition, % (test concentration not listed). 340,000 compounds, 0.35% hits;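 active means every replicate at 50% or more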;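 further: 0 = median of the neutral control wells; tested in H4 reporter cells; numbers are from one replicate; inactives centre near -14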
BJeLR viability: kills HRASV12-expressing BJeLR cells; BJeLR (HRASV12) viability, CellTiter-Glo ATP luminescence, 48 h; reference of the scale not given here; inhibition, % (no concentration beside the values); 300,000 compounds, 0.17% hits; AID 1554;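 active means replicate mean above 50%; inconclusive means above 50% but judged a plate artefact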;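 further: 50 nL library stock added to about 25 µL; numbers are from one replicate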
ugtP null kill: growth inhibition of S. aureus ugtP deletion strain; 330,000 compounds, 0.54% hits; S. aureus RN4220 ugtP deletion, OD600 growth, 16 h; some inactives read as strong as hits; AID 1259309; growth inhibition, % (no concentration beside the values);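 active means z-score under -3 and OD600 up to 0.15 on both plates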;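 further: plate controls were untreated wells for no effect and antibiotic for full effect; wells of about 80 µL received 100 nL stock; the first replicate is given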
Bead autofluor: flagged as autofluorescent in microsphere protease counterscreen; AID 624483; fluorescence intensity (test concentration not listed); 360,000 compounds, 3.1% hits; compound autofluorescence counterscreen, microsphere flow cytometry; stronger effect = higher value;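 active means at least 3 SD above the mean of all compounds, about 16000 in these data; inconclusive means too few beads counted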;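 further: 100 nL of 1 mM stock went into each well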
RN4220 kill: S. aureus RN4220 growth inhibition. OD600, 16 h. inhibition, % (concentration not given with the values). 330,000 compounds, 0.33% hits;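 active means z-score of -3 or lower and OD600 up to 0.18 on both plates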;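 further: plate controls were untreated cells for no effect and reference antibiotic for full effect; stock transfer was 100 nL into about 80 µL; one replicate is shown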
Mtb hypoxia inh growth: also measured in Mtb hypoxia inh; calls as there; growth inhibition, %; measured here: M. tuberculosis growth (absorbance);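 0% = vehicle and 100% = reference antibiotic; read after six days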
* marks the source's active call; other numbers are inactive results; ? = inconclusive; . = not tested or not shown.

SMILES	Mtb hypoxia inh	Mtb hypoxia inh growth	PrP UTR inh	BJeLR viability	ugtP null kill	Bead autofluor	RN4220 kill
N#Cc1c(-c2ccc(Br)cc2)cc(-c2cccnc2)nc1N	4.3	3.8	-132.4	-5.0	-7.8	2120	9.8
C=CCN1C(=O)CSC1=Nc1ccc(C(=O)O)cc1	8.9	5.0	-0.3	-7.3	7.0	3746	5.7
CN(c1ccccc1)c1nc(N)c([N+](=O)[O-])c(NCc2ccccc2)n1	10.6	1.5	-18.5	-3.6	-11.6	3359	1.3
O=c1oc2cc(OCc3ccc([N+](=O)[O-])cc3)ccc2c2c1CCCC2	8.0	6.5	-61.6	-3.0	3.7	4300	2.0
Cc1ccc(S(=O)(=O)N2CCOCC2)cc1C(=O)N1CCN(c2ncccn2)CC1	5.8	-1.0	-0.1	.	7.8	4925	3.1
Cc1cccc(C(=O)Oc2coc(CSc3nnc(NC(=O)C4CC4)s3)cc2=O)c1	-9.8	3.0	-2.1	-2.6	13.0	2570	3.7
CC(=O)Nc1ccc2c(c1)nc(C)n2Cc1ccccc1	2.8	0.0	-38.9	-4.8	14.3	3960	5.0
CC(=O)c1cnc(N2CCCCC2)nc1C	-5.2	7.9	-5.6	5.4	-4.8	21581*	2.9
Cn1cccc1C=Nn1cnnc1	-3.9	-19.9	.	.	-0.1	.	-0.8
CCCC(O)(c1ccccc1)C(c1ccccc1)c1ccccn1 (stereo unspecified)	17.4	9.4	-18.6	.	2.9	4002	4.4
Nc1c(S(=O)(=O)c2cccs2)c2nc3ccccc3nc2n1/N=C/c1cccc(O)c1	.	.	-32.2	-7.9	.	2746	.
Cc1ccnc(NC(=O)CCC(=O)N(CC(=O)NC2CCCCC2)c2cccc(C)c2C)c1	.	.	-19.5	-6.4	6.1	4510	-0.8
CCCCNC(=O)c1onc(CSc2cccc3ccccc23)c1C(=O)O	0.9	-3.4	-8.1	-5.9	29.4	3989	41.2
Cc1ccc(Nc2nc(-c3cccnc3)nc3ccccc23)cc1	3.8	-1.7	-15.0	48.2	27.8	3759	-7.5
Cc1cc(N2CCOCC2)nc2ccc(NC(=S)NC(C)C)cc12	6.2	2.1	-17.2	-13.3	9.9	3200	3.5
Cc1ccc(NC(=O)c2cc(-c3cc(Cl)ccc3O)n[nH]2)cc1C	3.8	-1.8	-18.1	2.3	7.8	3703	2.5
COc1ccc(S(=O)(=O)NCCC(=O)Nc2ccc(C)cc2)cc1	7.2	0.1	-13.4	2.2	12.9	5132	2.1
CN(C)CCCN(C(=O)c1ccc([N+](=O)[O-])o1)c1nc2cc3c(cc2s1)OCO3	1.5	1.5	-10.4	7.5	14.0	4384	3.7
O=C(O)CCC(=O)Nc1ccc(Br)cc1C(=O)c1ccccc1	-2.0	7.1	-12.7	0.0	1.8	4578	3.5
COc1ccc(Cl)cc1NC(=O)COc1ccc2c(c1)OCO2	-6.0	-5.4	-7.2	.	3.8	3048	2.1
CN[C@H](C)C(=O)NC[C@H]1O[C@@H](n2cnc3c(N)ncnc32)[C@H](O)[C@@H]1O	-2.7	0.1	-34.9	.	4.3	2822	-0.8
CCOc1ccc(C(=O)N/N=C/c2ccccc2[N+](=O)[O-])cc1	.	.	-36.4	1.7	.	2109	.
COC(=O)Cc1ccc(NC(=O)c2ccccc2Br)cc1	7.8	17.0	-66.1	-4.2	-4.9	2591	-0.8
CCOC1(N=C(C)NS(=O)(=O)c2ccc(Cl)cc2)C(C)=CC(=O)C=C1C	-15.3	-15.1	.	.	8.6	.	15.2
O=C(NC(=S)Nc1ccc(CN2CCCCC2)cc1)c1cccc(OCc2ccccc2)c1	1.9	7.7	-3.5	2.1	24.8	4535	19.1
O=S(=O)(NCc1ccncc1)c1ccccc1	-5.6	-7.0	-14.4	7.9	-2.6	4255	-1.4
CCOC(=O)c1c(N)n(-c2ccc(N)cc2)c2nc3ccccc3nc12	-10.3	3.2	-3.0	-2.3	13.9	2016	0.4
CCOC(=O)C1=C(C)N(c2ccc(OC)cc2)C(=O)/C1=C\c1cccs1	6.0	6.7	-18.2	-3.5	16.4	2100	3.0
COc1ccc(C(=O)NC(Cc2ccccc2)c2ccc3c(c2)OCCCO3)cc1 (stereo unspecified)	-6.9	7.3	-8.8	2.2	3.6	10841	1.1
OC(c1ccc(Cl)cc1)C(O)c1nc2ccccc2[nH]1 (stereo unspecified)	4.8	0.1	-8.0	19.8	10.8	10921	2.1
COCCN(C(=O)c1ccc2c(c1)S(=O)(=O)N=C1CCCCCN12)c1c(N)n(CC(C)C)c(=O)[nH]c1=O	8.3	14.6	-1.9	.	1.3	3470	1.0
Cc1ccc2c(c1)[nH]c1c(=O)n(CCN3CCCCC3)cnc12	.	.	-40.5	2.6	5.0	2888	-0.2
Cn1c(=O)c2c(ncn2CC(=O)N2CCOCC2)n(C)c1=O	-2.6	3.9	-24.6	0.3	1.7	2881	2.2
C/C(=N\NC(=O)c1ccc(O)cc1)c1cccc(NC(=O)c2ccccc2C)c1	.	.	-10.2	11.9	.	6944	.
O=C1C2C3CCC(C3NCc3ccccc3)C2C(=O)N1Cc1ccccc1 (stereo unspecified)	7.8	6.9	-24.5	-0.4	-11.5	3436	5.8
Nc1ccc(C(=O)NCC2(c3ccccc3)CCCC2)cc1	3.1	0.6	-12.0	.	2.8	3940	4.8
CCOC(=O)CNc1nc(Cl)nc(Nc2ccc(C)cc2)n1	-6.3	8.0	.	4.1	3.7	4384	2.2
CCCCN1CC2([N+](=O)[O-])C=CC(=O)C([N+](=O)[O-])(C1)C2CC(=O)c1ccccc1 (stereo unspecified)	1.6	9.3	-1.8	4.6	-1.7	9152	9.9
COc1ccc(C(=O)NCCn2cc(SCC(=O)Nc3nnc(C)s3)c3ccccc32)cc1	11.1	2.3	-67.9	3.2	1.8	9586	8.1
Cc1ccc(S(=O)(=O)N2CCC(C(=O)N3CCC4(CC3)OCCO4)CC2)cc1	1.6	-2.2	-2.3	12.4	6.9	8097	1.0

A different layout for six compounds above.
Compound | Mtb hypoxia inh | Mtb hypoxia inh growth | PrP UTR inh | BJeLR viability | ugtP null kill | Bead autofluor | RN4220 kill
Cc1cc(N2CCOCC2)nc2ccc(NC(=S)NC(C)C)cc12 | 6.2 | 2.1 | -17.2 | -13.3 | 9.9 | 3200 | 3.5
Cc1ccc(NC(=O)c2cc(-c3cc(Cl)ccc3O)n[nH]2)cc1C | 3.8 | -1.8 | -18.1 | 2.3 | 7.8 | 3703 | 2.5
COc1ccc(S(=O)(=O)NCCC(=O)Nc2ccc(C)cc2)cc1 | 7.2 | 0.1 | -13.4 | 2.2 | 12.9 | 5132 | 2.1
CN(C)CCCN(C(=O)c1ccc([N+](=O)[O-])o1)c1nc2cc3c(cc2s1)OCO3 | 1.5 | 1.5 | -10.4 | 7.5 | 14.0 | 4384 | 3.7
O=C(O)CCC(=O)Nc1ccc(Br)cc1C(=O)c1ccccc1 | -2.0 | 7.1 | -12.7 | 0.0 | 1.8 | 4578 | 3.5
COc1ccc(Cl)cc1NC(=O)COc1ccc2c(c1)OCO2 | -6.0 | -5.4 | -7.2 | . | 3.8 | 3048 | 2.1

(next part)
SMILES	Mtb hypoxia inh	Mtb hypoxia inh growth	PrP UTR inh	BJeLR viability	ugtP null kill	Bead autofluor	RN4220 kill
CCCCC1CNC(=O)C(=O)N1CC(C)(C)C (stereo unspecified)	13.9	9.6	.	.	-2.0	.	8.4
O=C1CC2(CCN(C(=O)c3ccccc3Br)CC2)Oc2ccccc21	2.5	6.4	-12.4	0.8	1.8	.	1.6
CNc1nc(-c2ccccc2)cc(C(F)(F)F)c1C#N	.	.	-9.3	4.3	11.0	2462	1.5
CCCCN1C(N)=NC[C@@H]1Cc1ccccc1	.	.	-4.3	7.3	.	2790	.
S=C(NCc1ccco1)Nc1ccc2c(c1)OCCO2	1.9	5.0	-25.1	5.1	1.9	4133	0.8
CC(=O)NCC1CCCN(c2nc3nonc3nc2N(C)Cc2ccccc2)C1 (stereo unspecified)	6.6	16.8	-30.3	-1.7	2.4	3301	5.0
Cc1ccc(NC(=O)C(OC(=O)c2cnc(C)cn2)c2ccccc2)c([N+](=O)[O-])c1 (stereo unspecified)	-7.9	3.9	-4.2	2.9	-5.4	5785	-3.2
Cc1cc(C(=O)NNC(=O)CN2C(=O)NC(C)(c3ccccc3)C2=O)c(C)o1 (stereo unspecified)	6.0	1.5	-14.4	-1.8	0.9	?	6.1
O=c1[nH]c(NNC(=S)NC2CCCCC2)nc2c1C1(CCCC1)Cc1ccccc1-2	1.2	5.9	0.7	6.9	1.4	.	-3.6
Cc1cc(C)nc(NN=Cc2ccccc2OCC(=O)O)n1	8.3	-3.5	.	.	0.2	.	1.3
Nc1ccccc1N1C(=O)c2cccc3cccc(c23)C1=O	3.9	13.0	.	-9.7	6.9	6531	-0.1
COc1ccc(/C=C2\CCc3c2nc2ccccc2c3C(=O)O)cc1OC	.	.	-10.3	6.9	.	4639	.
Cc1ccc(CNC(=O)Cn2c(=O)oc3ccccc32)o1	5.1	10.1	-0.5	0.4	7.3	3373	8.7
CCCCCn1nc(C(=O)OCC(=O)c2c(N)n(C)c(=O)n(C)c2=O)c2ccccc2c1=O	4.3	10.7	-3.3	-0.8	8.1	3720	4.9
COc1ccc(-n2c(SCC(=O)NCC3CCCO3)nc3c(c2=O)SCC3)cc1 (stereo unspecified)	7.1	2.9	-24.6	7.4	3.8	6571	1.7
CSCC[C@H](NC(=O)Nc1ccccc1C)C(=O)O	-7.8	5.7	-17.2	-8.1	2.6	3621	-1.3
COc1cc(OC)c(C2C(C(=O)Nc3ccc(C)cc3C)=C(C)Nc3ncnn32)cc1OC (stereo unspecified)	8.4	14.0	-3.0	6.5	5.3	23198*	2.6
CCn1c(=O)n(CC(=O)NCc2ccco2)c(=O)c2ccccc21	.	.	-17.6	-2.3	2.5	2826	-1.3
Cc1ccc(N2CCN(S(=O)(=O)N3CCCCCC3)CC2)cc1Cl	13.4	4.3	-21.0	2.0	7.7	15817	2.9
CC(=O)c1ccccc1OC(=O)CCN1C(=O)c2ccccc2C1=O	9.2	4.4	8.2	-1.3	12.9	2008	2.1
Cc1ccc(NC(=O)NNC(=O)c2ccccc2)cc1	-2.4	9.7	-43.2	2.6	16.3	4596	4.9
CC(=O)Nc1ccc(NC(=O)CSc2nc(C)nc3sc(C)c(C)c23)cc1	-8.4	1.6	-2.8	6.0	16.6	4403	7.2
CCOC(=O)c1c(NC(=O)CSc2nc3ccccc3c(=O)n2-c2ccc(F)cc2)sc(C(C)=O)c1C	11.2	4.6	-7.7	0.4	-7.6	1915	-0.8
CO/N=C/NC(=O)NOCc1ccc(Cl)cc1Cl	.	.	-38.8	2.4	.	3047	.
Cc1ccccc1OCC(=O)Nc1ccccc1N1CCC(C)CC1	12.2	3.4	-3.3	-3.0	32.5	3213	-3.4
COc1ccc(CNC(=O)CN(C(=O)c2snc(C(N)=O)c2N)c2ccc(F)cc2)cc1	4.6	-0.9	-20.1	1.3	14.2	3541	3.8
COc1ccc(NC(=O)COC(=O)Cc2c[nH]c3ccccc23)cc1Cl	7.5	5.2	-13.1	.	-1.3	2857	5.3
Cc1ccc(S(=O)(=O)NCC(=O)OCC(=O)c2ccc(S(=O)(=O)N3CCCCC3)cc2)cc1C	8.3	1.9	0.5	.	9.3	4027	4.0
CC(C)c1ccc(C(C)NC(=O)C2CCCC2)cc1 (stereo unspecified)	18.7	21.9	-12.6	2.9	-4.2	3792	-3.7
Nc1c(C(=O)Nc2cccc(F)c2)nnn1-c1cccc(C(F)(F)F)c1	7.0	1.1	-17.0	6.5	1.5	4350	-1.9
COc1cc(C(=O)O)c2ccccc2n1	8.6	2.5	-7.1	-0.1	11.2	4262	4.3
O=C(Nc1ccc(Cl)cc1Cl)c1ccc2c(c1)OCCO2	2.9	3.4	-25.7	.	12.2	3623	14.5
COc1ccc2nc(N3C(=O)CC(Cc4ccc(Cl)cc4)C3=O)sc2c1 (stereo unspecified)	7.8	19.7	1.9	2.2	8.5	6817	-1.4
COc1ccc(C2CC(=O)c3cnc(NC(=O)c4ccccc4)nc3C2)c(OC)c1 (stereo unspecified)	12.3	8.8	-8.1	15.8	-4.5	2486	9.2
Cc1occc1C(=O)Nc1sc2c(c1C(N)=O)CCCCC2	.	.	-80.0	4.2	12.4	3584	-1.9
Cc1ccc(N2C(=NC(=O)c3ccccc3)SC3CS(=O)(=O)CC32)cc1 (stereo unspecified)	-0.1	0.5	-1.4	-2.2	-7.0	4762	-1.0
C[C@]12c3[nH]c4cc(-c5ccco5)ccc4c3CCN1C(=O)[C@@H](CC(=O)NCc1cccc(C(F)(F)F)c1)C[C@@H]2C(=O)N1CCOCC1	3.2	3.8	-18.0	.	9.3	3490	4.7

Source: PubChem BioAssay
